Screening data from PubChem BioAssay.
Tg IFNy HTS – blocks Toxoplasma gondii growth in the presence of IFN-gamma; Toxoplasma gondii growth in IFN-gamma-treated host cells; stronger effect = lower value; reference of the scale not given here; activity change, negative = inhibition, %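 (about 20 µM by stock and volumes)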; actives 3.8% (n = 69,000);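 active = below -70%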;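 also: host cells are HeLa cells infected with Toxoplasma gondii; parasite growth read as luciferase light; one replicate is shown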
Active calls of the source: *; i = inactive; & = joins results of further samples. Not all compounds are listed; count on the stated rates, not on these rows.

The first two compounds, to show the layout:
SMILES	Tg IFNy HTS
Cc1cccc(-c2c(-c3ccccc3)ncn2CCCN2CCNC(=O)C2)c1	-13
COc1ccc(-c2nc(N(C)Cc3ccccc3)c3ccccc3n2)cc1	15

The list itself, from the first entry:
SMILES	Tg IFNy HTS
Cc1cccc(-c2c(-c3ccccc3)ncn2CCCN2CCNC(=O)C2)c1	-13
COc1ccc(-c2nc(N(C)Cc3ccccc3)c3ccccc3n2)cc1	15
O=C1C(=O)N(CCn2c3ccccc3c3nc4ccccc4nc32)c2ccccc21	29
CCC(NC(=O)C1CC(=O)c2sc(NC(=O)Cc3ccccc3)nc2C1)c1cccs1 (stereo not given)	-8
Cc1nc(Sc2nnc(-c3ccccc3)n2C)c2sc(=S)n(-c3ccccc3)c2n1	-30
CCCN1CCC2(CC1)NC(=O)N(CC1CCN(C(=O)Cc3csc(C)n3)CC1)C2=O	-7
COc1ccc2c3c([nH]c2c1)[C@@H](CO)N(CC1CC1)CC31CCN(C(=O)Nc2cccc(F)c2)CC1	-51
CC(C)NC(=O)N(C)C[C@H]1Oc2ccc(NC(=O)c3ccncc3)cc2C(=O)N([C@H](C)CO)C[C@@H]1C	16
C[C@H]1CN([C@@H](C)CO)C(=O)c2cc(C#CC3(O)CCCC3)cnc2O[C@@H]1CN(C)S(=O)(=O)c1cccc(F)c1	-112*
COc1ccc(-c2ccc([C@H]3[C@H](CO)N4C(=O)CN(C(=O)C5CC5)C[C@@H]34)cc2)cc1	-1
COCc1cc(CN(C)c2nc(-c3cccnc3)nc3c2cnn3C)[nH]n1	56
O=C(NC1CC1)[C@H]1C[C@@H]2OCC[C@@H]2N(C(=O)c2cccs2)C1	-6
COc1ccc(CNC(=O)N(C)C[C@H]2OCc3ccccc3-c3c(n(C)c4ccccc34)C(=O)N([C@@H](C)CO)C[C@H]2C)cc1	-43
O=C(CSc1nc2ccccc2c(=O)n1Cc1ccco1)c1ccccc1	-3
CCN(CC)S(=O)(=O)c1ccc(S(=O)(=O)Nc2ccccc2-c2ccc(C)o2)cc1	-17
Cc1ccc(N2CCCc3sc(C(=O)Nc4cccc(F)c4)nc32)nn1	8
Cc1nc(-c2ccc(F)cc2)sc1CCNS(=O)(=O)c1ccc(Cl)cc1	31
COC(=O)c1[nH]ncc1CN1CCCC1c1nc(-c2ccccc2)no1 (stereo not given)	-16
COc1ccccc1OC1CCN(C(=O)c2cccc(O)c2C)CC1	-5
CC(C)CN1CC2CC(C(=O)NCC3CC3)C(C1)O2 (stereo not given)	-20
CNC(=O)C1CCC2(CCN(c3nncs3)CC2)CO1 (stereo not given)	20
COc1cccc(C#Cc2ccc3c(c2)[C@@H]2[C@@H](CCN2C(=O)c2ccccc2F)[C@H](CO)N3)c1	4
Cc1oc(-c2cccc(Cl)c2)nc1Cn1ccn2nc(-c3ccc4c(c3)OCO4)cc2c1=O	-36
O=C(C[C@H]1C=C[C@H](NS(=O)(=O)c2ccccc2)[C@H](CO)O1)NCCN1CCCCC1	-39
Cc1oc(-c2ccc(NC(=O)Cc3ccccc3Cl)cc2)nc1Cn1cccn1	-45
The list continues:
SMILES	Tg IFNy HTS
O=C1NC(CC(=O)N2C[C@H](C(=O)O)[C@@H](c3ccc(F)cc3)C2)c2ccccc21 (stereo not given in full)	28
CC(C)(C)c1nc(-c2ccc(C(F)(F)F)cc2)c2c(C(F)(F)F)cccc2n1	28
C[C@H]1CN([C@@H](C)CO)C(=O)CCCn2nncc2CO[C@@H]1CN(C)C(=O)Nc1ccnc(N2CCOCC2)c1	417
O=C(Nc1cc(F)ccc1F)N[C@H]1CC[C@H](CCn2cc(C3CCCCC3)nn2)O[C@@H]1CO	-27
C=CCc1ccc(OCC(O)COc2ccc(CC=C)cc2OC)c(OC)c1	18
Cc1nc(C2CCN(Cc3c(C)nc4ccccn34)C2)ncc1C(=O)Nc1ccccc1F (stereo not given)	-8
CCN(CC)CC(=O)N1CCC(N2C(=O)NC3(CCN(C(=O)C(C)C)CC3)C2=O)CC1	2
CCn1nc(C)c(CN2CC3(CCNCC3)CC2C(=O)O)c1C (stereo not given)	-39
C[C@@H]1CN([C@@H](C)CO)C(=O)CCCn2nncc2CO[C@@H]1CN(C)C(=O)NC1CCCC1	-59
COc1ccccc1N1CCN(C(=O)Nc2ccc(F)cc2)CC1	-22
CC1OCc2cc(=O)n(C(C)C(=O)Nc3ccc(F)c(Cl)c3)nc21 (stereo not given)	-23
CC(C)CC(=O)N1CCCC(c2nc(CNC(=O)C(C)C)cs2)C1 (stereo not given)	-15
Cc1cccc(C)c1NC(=O)COC(=O)c1nonc1N	21
CCOc1ccc(NC(=O)c2cncc(NS(=O)(=O)c3ccc(OC)c(OC)c3)c2)cc1	12
O=C(c1ccc(Cl)cc1)C1CCCN(C(=O)C#Cc2ccccc2)C1 (stereo not given)	3
COc1ccc(-c2nc(Nc3cccc(SC)c3)c3ccccc3n2)cc1	-32
O=S1(=O)c2ccccc2O[C@H]2CCN(Cc3ccc(Cl)cc3)CC[C@H]2N1CC1CC1	-89*
CC(C)(C)C(=O)Cn1nnc(-c2ccncc2)n1	39
C[C@@H]1CN([C@@H](C)CO)C(=O)CCCn2nncc2CO[C@@H]1CN(C)S(=O)(=O)c1cn(C)cn1	95
CCOc1ccc(-c2nc(CN(C)S(=O)(=O)c3ccc(F)cc3)c(C)o2)cc1	-30
Cc1ccsc1-c1nccn1CCN1CCCOC1=O	16
C[C@H](NC(=O)C[C@@H]1C=C[C@@H](NS(=O)(=O)c2cccc(F)c2)[C@@H](CO)O1)c1ccccc1	-28
CNc1ncc(CN(C)c2nc(-c3cccnc3)nc3c2cnn3C)cn1	-14
Cn1nc(C(=O)NCc2ccccc2-n2ccnc2)c2c1CCCC2	6
O=C(Nc1csc(Cc2c(Cl)cccc2Cl)n1)NN1CCOCC1	-38

Already shown: an excerpt of the list.
SMILES	Tg IFNy HTS
CCN(CC)CC(=O)N1CCC(N2C(=O)NC3(CCN(C(=O)C(C)C)CC3)C2=O)CC1	2
CCn1nc(C)c(CN2CC3(CCNCC3)CC2C(=O)O)c1C (stereo not given)	-39
C[C@@H]1CN([C@@H](C)CO)C(=O)CCCn2nncc2CO[C@@H]1CN(C)C(=O)NC1CCCC1	-59
COc1ccccc1N1CCN(C(=O)Nc2ccc(F)cc2)CC1	-22
CC1OCc2cc(=O)n(C(C)C(=O)Nc3ccc(F)c(Cl)c3)nc21 (stereo not given)	-23
CC(C)CC(=O)N1CCCC(c2nc(CNC(=O)C(C)C)cs2)C1 (stereo not given)	-15
Cc1cccc(C)c1NC(=O)COC(=O)c1nonc1N	21
CCOc1ccc(NC(=O)c2cncc(NS(=O)(=O)c3ccc(OC)c(OC)c3)c2)cc1	12
O=C(c1ccc(Cl)cc1)C1CCCN(C(=O)C#Cc2ccccc2)C1 (stereo not given)	3
COc1ccc(-c2nc(Nc3cccc(SC)c3)c3ccccc3n2)cc1	-32
O=S1(=O)c2ccccc2O[C@H]2CCN(Cc3ccc(Cl)cc3)CC[C@H]2N1CC1CC1	-89*
CC(C)(C)C(=O)Cn1nnc(-c2ccncc2)n1	39
C[C@@H]1CN([C@@H](C)CO)C(=O)CCCn2nncc2CO[C@@H]1CN(C)S(=O)(=O)c1cn(C)cn1	95
CCOc1ccc(-c2nc(CN(C)S(=O)(=O)c3ccc(F)cc3)c(C)o2)cc1	-30
Cc1ccsc1-c1nccn1CCN1CCCOC1=O	16
C[C@H](NC(=O)C[C@@H]1C=C[C@@H](NS(=O)(=O)c2cccc(F)c2)[C@@H](CO)O1)c1ccccc1	-28
CNc1ncc(CN(C)c2nc(-c3cccnc3)nc3c2cnn3C)cn1	-14
Cn1nc(C(=O)NCc2ccccc2-n2ccnc2)c2c1CCCC2	6
O=C(Nc1csc(Cc2c(Cl)cccc2Cl)n1)NN1CCOCC1	-38

Remaining list, next part:
SMILES	Tg IFNy HTS
O=C(C1CCN(S(=O)(=O)c2ccc3[nH]c(=O)ccc3c2)CC1)N1CCN(c2ccccc2)CC1	39
CCOc1ccccc1OCCN[C@H](C)Cc1ccc(OC)c(S(N)(=O)=O)c1	16
CCS(=O)(=O)Nc1ccc2c(c1)C(=O)N(C)[C@@H]1CC[C@H](CC(=O)NCc3ccc(OC)cc3)O[C@H]1CO2	1
CCc1ncc(-c2c(-c3ccccc3)ncn2Cc2ccccc2F)cn1	21
CN(C)CC(=O)N1[C@H](CO)[C@@H](c2ccc(C#CC3CCCCC3)cc2)[C@@H]1C#N	11
Cc1cccc(CC2(NC(=O)C(C)n3ccnc3C(C)C)CC2)c1 (stereo not given)	-7
CN1CCCn2nc(C(=O)NC3COC4(CCCC4)C3)cc2C1 (stereo not given)	2
Nc1cc(-c2cn[nH]c2C2CCCN(S(=O)(=O)c3ccccc3)C2)ccn1 (stereo not given)	-39
C[C@H](CO)N1C[C@H](C)[C@@H](CN(C)C(=O)Nc2ccc3c(c2)OCO3)OCc2ccccc2-c2c(n(C)c3ccccc23)C1=O	-22
CCC1CN(C(=O)c2ccc(-c3cnn(C)c3)nc2)CCN1C(C)C (stereo not given)	-1
O=C(O)c1ccccc1C(=O)NCc1ccccc1OC(F)(F)F	17
Cc1nc(C2CCN(Cc3ccnn3C)CC2)nc2c1CCCN2CCc1ccccc1	-53
N#Cc1ccc(Cn2nc(-c3nccc4ccccc34)oc2=O)cc1	45
COCCCN1CC(C(=O)Nc2ccc(-c3ccc(F)cc3)cc2)CC1=O (stereo not given)	-11
CC(c1ccc(C(=O)NCCc2c[nH]c3ccccc23)o1)N1CCCCC1 (stereo not given)	9
CC(=O)N1NC(c2ccccc2)CC1c1ccccc1 (stereo not given)	30
COc1ccccc1-c1nc(Cn2nnc(C(=O)Nc3ccc(C)cc3Br)c2C)c(C)o1	59
O=C(Nc1ccc(S(=O)(=O)Nc2ccccn2)cc1)c1ccc(Cl)c(Cl)c1	-3
O=S(=O)(CCc1ccncc1)N1CCC(O)(Cn2ccc3nc(Cl)ccc32)CC1	-1
CCC(=O)N1Cc2ccccc2C2(CCN(Cc3cnn(C)c3)CC2)C1	4
CN1CCC(Cc2noc(-c3ccccc3N3CCOCC3)n2)CC1	2
CCO[C@H]1COC[C@@H]1NC(=O)c1cc(NC(C)=O)ccc1Cl	13
Cc1cc(C)n(CCCC(=O)O)c(=O)n1	71
COCC(=O)N1CCN2CC(C(=O)O)CN(Cc3ccoc3)CC2C1 (stereo not given)	-1
COc1ccc(N(Cc2nc(-c3ccccc3)oc2C)S(=O)(=O)c2cccs2)cc1	-47
(continued)
SMILES	Tg IFNy HTS
COc1ccc(CC(=O)N2CCN(S(=O)(=O)c3cc4c5c(c3)CCN5C(=O)CC4)CC2)cc1	12
Cc1nnc(Sc2nc(Sc3nnc(C)s3)nc(N3CCCCC3)n2)s1	-84*
COc1ccc(C(C)=O)cc1CSC(=S)N1CCSCC1	-53
O=C(CC1N=C2c3ccccc3N=C(SCc3cccc(Cl)c3)N2C1=O)NCc1ccc(F)cc1 (stereo not given)	-1
CCc1nc(-c2cc(C(=O)NCCCO)c3ccccn23)cs1	-1
CC(C)c1c(O)ccc2c1CCC1C(C)(C)CCC[C@]21C (stereo not given in full)	-46
COc1ccc(-c2nc3c(s2)CN(S(=O)(=O)c2ccc(OC)c(OC)c2)CC3)cc1	-16
COC(=O)c1cc(C)nc2c1c(=O)n(Cc1nc(-c3cc(C)ccc3C)oc1C)c(=O)n2C	-5
C[C@H](CO)N1C[C@H](C)[C@@H](CN(C)S(=O)(=O)c2ccc([N+](=O)[O-])cc2)OCc2ccccc2-c2ccccc2C1=O	8
CN1C[C@H](NC(=O)c2ccc(Oc3ccccc3)cc2)C[C@H]1CO	16
C[C@H]1CN([C@@H](C)CO)C(=O)c2cccc(NC(=O)c3ccncc3)c2O[C@H]1CN(C)Cc1ccc2c(c1)OCO2	-26
NS(=O)(=O)c1ccc(C(=O)N2CCCC(N3CCc4ccccc4C3)C2)cc1 (stereo not given)	0
COc1ccc(C)cc1NC(=O)Cn1c(=O)cc(-c2nc(C3CC3)no2)c2ccccc21	-87*
CC(C)C1COC2(CCCN(C(=O)c3cnn4cccnc34)C2)C1 (stereo not given)	-34
CCCC(=O)N1CCC2(CC1)CN[C@@H](CO)c1[nH]c3cc(OC)ccc3c12	173
COc1cc2c(cc1NS(=O)(=O)NCc1ccccc1)n(C)c(=O)n2C	11
CCN1CCC2(CC1)OC(=O)C(C)=C2C(=O)Nc1cccc(OC)c1	70
CCN(Cc1noc(CC(C)C)n1)C(=O)c1cnn2cc(C)cnc12	-22
Cc1noc2nc3c(c(C(=O)N4CCOC(C(F)(F)F)C4)c12)CCC3 (stereo not given)	4
CCn1c(C2CCCN(S(=O)(=O)N3CCCC3)C2)n[nH]c1=O (stereo not given)	-4
CC(=O)N1CCC2(CC1)OC(=O)C(C)=C2C(=O)Nc1cc(Cl)ccc1C	54
CCN1c2ccc(C)cc2C(=O)NC12CCN(C(=O)Cc1ccc(OC)cc1)CC2	-22
Cc1cc(C)cc(C(=O)NCCc2csc(-c3ccc(C(F)(F)F)cc3)n2)c1	i
Cc1cccc(-c2noc(-c3c(O)c4cc(C)ccc4[nH]c3=O)n2)c1	50
Cc1ccccc1CN1C[C@@H]2C[C@H](C(=O)NC3CCC3)[C@@H](C1)O2	-66
Later entries.
SMILES	Tg IFNy HTS
COc1ccc2c(c1)CC(NCCSc1ncn[nH]1)CC2 (stereo not given)	9
C[C@H]1CN([C@@H](C)CO)C(=O)CCCn2cc(nn2)CO[C@H]1CN(C)C(=O)Nc1cccc2ccccc12	i
O=C(Cc1c[nH]c2ccccc12)N1CCCC2(C1)Nc1cccnc1NC2=NC1CCCC1 (stereo not given)	143
C/C=C/c1ccc([C@H]2[C@@H](CO)N(C(=O)CC)[C@H]2CN(C)Cc2cncnc2)cc1	9
CCOc1ccccc1-c1nc(Cn2cnc3onc(C)c3c2=O)c(C)o1	77
COC(=O)/C=C/c1cccc(N(Cc2ccc(-c3ccc(N(C)C)cc3)cc2)C(=O)C2CCCCC2)c1	9&-3
c1ccc(-c2ncn(CCCOc3cccnc3)c2-c2ncc[nH]2)cc1	-4
COc1ccc2c3c([nH]c2c1)[C@@H](CO)N(CC1CC1)CC31CN(Cc2cc(F)ccc2F)C1	192
CCS(=O)(=O)N1C[C@H](OCCCn2cccn2)[C@@H]2OCCC[C@@H]21	2
CC(C)c1nnsc1CN1Cc2ncccc2C1=O	-13
COc1cccc(-c2ccc3c(c2)O[C@@H](CN(C)Cc2cccnc2)[C@@H](C)CN([C@H](C)CO)S3(=O)=O)c1	30
CC(c1ccccn1)N(C)Cc1cccn1S(=O)(=O)c1ccccc1 (stereo not given)	9
